Rango release inh – prevents RanGTP from dissociating the Rango-importin beta complex. Biochemical FRET Rango-importin beta, RanGTP-induced dissociation. 340,000 tested, 0.071% active. O95149+P62826. AID 540253. Potency, µM (highest dose often 46.1 µM), inactives show top-dose activity change, negative = inhibition; active means falling FRET ratio curve, often poorly fitted, with flat reads before Ran was added; inconclusive means other falling curves, or compound fluorescence or quenching; inactive means flat or rising ratio curve;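 also: potency is read from the fitted curve at half-maximal effect; % of control where 0% means no effect; nearly all actives have a fitted effect of over 45% in size; -100% = wells without RanGTP and RCC1; the record marks most hits as doubtful in a second field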
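Compounds preincubate 5 min with complex of recombinant Rango and importin beta in PBS with 1 mM DTT. Ran (0.6 uM) loaded with 2 mM GTP plus 0.2 uM RCC1 starts dissociation; FRET is recorded 45 min later.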
Rango-impB inh – inhibitors of Rango-importin beta complex formation; Potency, µM (top dose mostly 92.2 µM), for the others: at the top dose inhibition of complex formation; 340,000 tested, 0.031% active; Rango CFP/YFP FRET sensor + importin beta, 45 min; Q14974; active = rising FRET ratio curve, often small or poorly fitted; inconclusive = mostly compound fluorescence or quenching in the first reads; inactive = flat curves in all reads;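 also: potency is read from the fitted curve at half-maximal effect; 0% = DMSO wells and 100% = buffer wells lacking importin beta; nearly all actives have a fitted effect of over 15% in size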
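FRET biosensor (snurportin 1 IBB flanked by EYFP and cerulean), 50 nM, with compound 5 min, then 0.125 microM importin beta in PBS, 1 mM DTT, 0.02% Tween-20, 0.1% BSA. CFP/YFP ratio read after 45 min at room temperature; pre-read flags interference.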
GLA inh pH 4.5 – blocks human alpha-galactosidase A at pH 4.5; P06280; purified enzyme, 4-MU-alpha-Gal fluorescence, pH 4.5; activity change, negative = inhibition, % at 105 µM; 230,000 tested, under 10 active; inconclusive = small, poorly fitted or top-dose-only inhibition, or a rising curve; inactive = flat fitted curve, though single readings scatter; no compound was filed as active;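 also: 0% = full activity with enzyme and -100% = basal without enzyme; dose as in the result columns while the protocol names 77 µM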
Target sequence (P06280 whole entry, looked up): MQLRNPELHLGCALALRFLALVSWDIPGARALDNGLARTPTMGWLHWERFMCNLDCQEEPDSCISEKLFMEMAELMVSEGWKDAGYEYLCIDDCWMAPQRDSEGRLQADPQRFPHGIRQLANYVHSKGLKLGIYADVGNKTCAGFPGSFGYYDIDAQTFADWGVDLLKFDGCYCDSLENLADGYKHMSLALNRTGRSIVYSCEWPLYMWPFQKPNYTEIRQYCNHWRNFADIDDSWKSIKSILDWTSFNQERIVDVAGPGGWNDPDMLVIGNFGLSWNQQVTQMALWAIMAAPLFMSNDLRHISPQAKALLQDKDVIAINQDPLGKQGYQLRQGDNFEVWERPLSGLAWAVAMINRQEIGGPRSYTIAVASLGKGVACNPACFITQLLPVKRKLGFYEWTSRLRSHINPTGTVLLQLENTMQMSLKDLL
miR-21 FLuc – miR-21 reporter, rising signal. HeLa miR-21 FLuc reporter, luciferase, 48 h. Potency, µM (titrated, usually from 38.3 µM), without a hit: at the top dose reporter change, positive = more light. 340,000 tested, under 10 active. AID 2288; active = well fitted rising curve with a large enough effect; inconclusive = small, poorly fitted or top-dose-only effect; inactive = no such curve, though single readings can be large or run the other way;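 also: % of control where 0% means no effect; miR-21 action dims this reporter so a rising signal means less miR-21 action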
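HeLa miR-21-FLuc reporter line, endogenous miR-21; 2000 cells/well in DMEM/10% FBS; compound titration up to ~40uM final, 48 h, 37 degree Celsius; luciferase detection reagent, 15 min lysis, CCD luminescence.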
Active calls of the source: *; [ ] = remark or other dose. The list is partial, so the mix of outcomes need not match the whole.

The opening 2 compounds as a preview:
For Cc1ccc(OCCNC(=O)c2cccc(C)c2)cc1 the results were Rango release inh -24.2%, Rango-impB inh -0.7% and miR-21 FLuc -12.8%.
CCCCN(C1CCS(=O)(=O)C1)S(=O)(=O)c1cccs1 (configuration not stated) was read as Rango release inh 0.5% and Rango-impB inh -1.1%.

All compounds of this part, from the first entry:
For Cc1ccc(OCCNC(=O)c2cccc(C)c2)cc1 the results were Rango release inh -24.2%, Rango-impB inh -0.7% and miR-21 FLuc -12.8%.
CCCCN(C1CCS(=O)(=O)C1)S(=O)(=O)c1cccs1 (configuration not stated) was read as Rango release inh 0.5% and Rango-impB inh -1.1%.
Screening CC(=O)Nc1cccc(CP(=O)(c2ccccc2)c2ccccc2)c1 returned Rango release inh 27.3%, Rango-impB inh 4.6%, GLA inh pH 4.5 -1.9 and miR-21 FLuc 5.3%.
`Cc1cc(Cl)ccc1NNC(=O)c1snnc1C` gave Rango release inh -2.4%, Rango-impB inh -0.3%, GLA inh pH 4.5 2.1 and miR-21 FLuc 9.8%.
Screening Cc1occc(=O)c1OCc1ccc(Cl)cc1Cl returned Rango release inh 4.2%, Rango-impB inh 0.6% and miR-21 FLuc -10.5%.
`O=C(CC(=O)c1cccnc1)c1ccccc1` gave Rango release inh -9.8% and Rango-impB inh -1.1%.
COc1ccc(-c2cc(-c3ccccc3)nc(SC(C)C(=O)O)c2C#N)cc1 (configuration not stated) was read as Rango release inh -14.8%, Rango-impB inh 0.3% and miR-21 FLuc -13.8%.
CCCCc1nnc(NC(=O)CSc2nc(O)c(Cc3ccccc3)c(=O)[nH]2)s1 was read as Rango release inh 36.1%, Rango-impB inh 0.6%, GLA inh pH 4.5 4.8 and miR-21 FLuc -0.5%.
For Cc1cc(Cn2nc(C(=O)NCc3cccc(Br)c3)cc2-c2ccccc2)on1 the results were Rango release inh 9.5% and Rango-impB inh -4.4%.
Screening CCN(C(=O)COC(=O)c1ccc(COc2ccc3c(C)cc(=O)oc3c2)cc1)C1CCS(=O)(=O)C1 (configuration not stated) returned Rango release inh 8.9%, Rango-impB inh -1.4%, GLA inh pH 4.5 -5.7 and miR-21 FLuc -19.2%.
Screening COc1ccc(N(CC(=O)NC2CCCC2)C(=O)CCC(=O)Nc2nc(C)cs2)cc1OC returned Rango release inh -3.8%, Rango-impB inh -1.0% and miR-21 FLuc 1.8%.
COCCN(C(=O)COC(=O)/C=C/c1nc2ccccc2s1)c1c(N)n(Cc2ccccc2)c(=O)[nH]c1=O was read as Rango release inh -7.6% and Rango-impB inh -4.4%.
Cc1cc(S(=O)(=O)NC(C)C)ccc1OCC(=O)N1CCOCC1 was read as Rango release inh 21.4%, Rango-impB inh 0.0%, GLA inh pH 4.5 4.8 and miR-21 FLuc -2.4%.
COc1ccc(C(=O)CC(=O)C(=O)Nc2cc(C)ccc2C)cc1 was read as Rango release inh -12.0%, Rango-impB inh -0.5% and miR-21 FLuc -8.2%.
`CC(C)OC(=O)CSc1nnc(SCc2cccc3ccccc23)s1` gave Rango release inh -6.2%, Rango-impB inh -0.1%, GLA inh pH 4.5 -4.7 and miR-21 FLuc 0.6%.
Screening C[C@@H]1[C@H](O)C[C@@]23COC(=O)C2=CCC[C@@H]3[C@@]1(C)CC/C(=C/CO)CO returned Rango release inh 14.0% and Rango-impB inh 0.7%.
`CC(=O)Nc1cccc(C(=O)Nc2cccc3ncccc23)c1` gave Rango release inh -15.6%, Rango-impB inh -1.8% and miR-21 FLuc 12.1%.
`CC(C)NC(=O)C1CCCN(S(=O)(=O)c2cccc3nonc23)C1` (configuration not stated) gave Rango release inh 4.8%, Rango-impB inh 0.5% and miR-21 FLuc 0.2%.
COc1cc2c(cc1OC)-c1cc(NCc3ccccn3)nc(=O)n1CC2 was read as Rango release inh 0.5%, Rango-impB inh 2.8%, GLA inh pH 4.5 2.9 and miR-21 FLuc -25.2%.
For CCOC(=O)Nc1sc(C)c(C)c1C(N)=O the results were Rango release inh -4.7%, Rango-impB inh -0.4%, GLA inh pH 4.5 0.2 and miR-21 FLuc -10.6%.
COc1cc(/C=C/C(=O)OCC(=O)NC2CCCCCCC2)ccc1O was read as Rango release inh inconclusive and Rango-impB inh inconclusive.
For COc1ccc(S(=O)(=O)N2CCOCC2)cc1NC(=O)COC(=O)C1CC1C (configuration not stated) the results were Rango release inh 18.7% and Rango-impB inh -0.3%.
For Cc1cccc(C)c1NC(=O)CNC(=O)CNC(=O)Cc1cccc2ccccc12 the results were Rango release inh 26.3% and Rango-impB inh inconclusive.
Screening CCCOc1ccc(-c2c(C(=O)N/N=C/c3cccs3)nnn2-c2nonc2N)cc1 returned Rango release inh -15.0%, Rango-impB inh -1.4% and miR-21 FLuc 1.6%.
`CCNC(=O)CC1C(=O)N(CC)C(=S)N1NC(=O)c1cccnc1` (configuration not stated) gave Rango release inh -7.0%, Rango-impB inh 0.3%, GLA inh pH 4.5 6.1 and miR-21 FLuc 4.9%.
`CC(C)(C)n1nnnc1C(c1ccc(C#N)cc1)N1CCCC2(CCCCC2)C1` (configuration not stated) gave Rango release inh -15.4%, Rango-impB inh -1.9%, GLA inh pH 4.5 -11.9 and miR-21 FLuc -1.4%.
CCc1ccc(NC(=O)Cn2cnc([N+](=O)[O-])c2)cc1 was read as Rango release inh -4.8%, Rango-impB inh -0.2% and miR-21 FLuc -5.7%.
For COc1ccccc1CNC(=O)CN(C)S(=O)(=O)c1ccc2c(c1)n(C)c(=O)c(=O)n2C the results were Rango release inh -1.9%, Rango-impB inh 0.5% and miR-21 FLuc -2.1%.
For CC(=O)c1cccc(NC(=O)c2ccc(S(=O)(=O)N3CC(C)OC(C)C3)cc2)c1 (configuration not stated) the results were Rango release inh 6.8% and Rango-impB inh inconclusive.
For CC(=O)Nc1ccc(S(=O)(=O)N(C)c2ccc(OCC(=O)OCC(=O)NCc3ccco3)cc2)cc1 the results were Rango release inh -6.5%, Rango-impB inh 0.5%, GLA inh pH 4.5 1.0 and miR-21 FLuc inconclusive.
`COc1ccc(CC(=O)NCC(C)(C)N2CCOCC2)cc1` gave Rango release inh 7.4%, Rango-impB inh 2.2% and miR-21 FLuc -0.4%.
For CN(Cc1ccccc1)S(=O)(=O)c1ccc(OCC(=O)Nc2cccc([N+](=O)[O-])c2)cc1 the results were Rango release inh -0.3%, Rango-impB inh -4.2%, GLA inh pH 4.5 -7.4 and miR-21 FLuc -3.3%.
`O=C(NC1CCCC1)C(c1ccccc1F)N(C(=O)Cc1cccs1)c1ccc2c(c1)OCCO2` (configuration not stated) gave Rango release inh -9.1%, Rango-impB inh -1.1%, GLA inh pH 4.5 -5.8 and miR-21 FLuc 15.9%.
For CCC(=O)c1ccc(OCC(O)Cn2nnc3ccccc32)cc1 (configuration not stated) the results were Rango release inh 3.6%, Rango-impB inh 7.8%, GLA inh pH 4.5 -2.6[21.1 µM] and miR-21 FLuc -35.0%.
`Cc1cc(C)c2c(c1)/C(=N/NS(=O)(=O)c1ccccc1)CCC2` gave Rango release inh -7.1%, Rango-impB inh -0.7%, GLA inh pH 4.5 4.0 and miR-21 FLuc -5.0%.
CCc1ccc(C2=Nn3c(nnc3-c3cccs3)SC2)cc1 was read as Rango release inh 1.3%, Rango-impB inh -0.5%, GLA inh pH 4.5 -8.7 and miR-21 FLuc 5.8%.
`CCCCCn1c(N2CCOCC2)nc2c1c(=O)n(CC(N)=O)c(=O)n2C` gave Rango release inh -3.4%, Rango-impB inh -1.8%, GLA inh pH 4.5 -4.3 and miR-21 FLuc 6.2%.
For Cc1cc(C(=O)N/N=C/C=C/c2ccc([N+](=O)[O-])cc2)n[nH]1 the results were Rango release inh -11.2%, Rango-impB inh 2.7%, GLA inh pH 4.5 -3.2 and miR-21 FLuc 5.2%.
For CC(C)CCNC(=S)Nc1ccc(Br)cc1 the results were Rango release inh 12.0%, Rango-impB inh -3.0%, GLA inh pH 4.5 -3.6 and miR-21 FLuc 10.4%.
Cc1cc(C)n2nc(-c3ccsc3-n3c(C)ccc3C)cc2n1 was read as Rango release inh inconclusive, Rango-impB inh inconclusive, GLA inh pH 4.5 -3.1 and miR-21 FLuc -5.9%.
CSc1nc2ccccc2c(=O)n1Cc1ccc(F)cc1 was read as Rango release inh -20.3%, Rango-impB inh -1.5%, GLA inh pH 4.5 5.1 and miR-21 FLuc -6.9%.
`Cc1cccc(CC2S/C(=N/N=C/c3ccco3)NC2=O)c1` (configuration not stated) gave Rango release inh -10.4%, Rango-impB inh 4.2%, GLA inh pH 4.5 -3.3 and miR-21 FLuc -3.9%.
For CC(=O)SC(C)CC(=O)NCc1ccccc1 (configuration not stated) the results were Rango release inh 0.6%, Rango-impB inh -5.9%, GLA inh pH 4.5 12.0 and miR-21 FLuc -4.3%.
Screening CCN(CCO)c1nc(SC)nc2c1sc1nc(-c3ccco3)c3c(c12)CCC3 returned Rango release inh -17.8%, Rango-impB inh 0.2%, GLA inh pH 4.5 -2.0 and miR-21 FLuc -10.2%.
Screening O=C(O)CCCCCn1c(SCC(=O)Nc2ccc(F)cc2)nc2ccsc2c1=O returned Rango release inh 1.5%, Rango-impB inh 0.2%, GLA inh pH 4.5 9.9 and miR-21 FLuc -9.2%.
Screening COc1ccccc1NC(=O)Cn1nnc(-c2ccccc2NC(=O)c2cc3ccccc3oc2=O)n1 returned Rango release inh 11.2%, Rango-impB inh -2.7%, GLA inh pH 4.5 7.2 and miR-21 FLuc -40.3%.
`CCCc1cc(C(=O)N2CCCN(C)CC2)cs1` gave Rango release inh 12.7%, Rango-impB inh 1.4% and miR-21 FLuc -7.7%.
`O=C1CCCN1CCCNc1ccc2nnc(CCC(=O)N3CCN(c4ccc(F)cc4)CC3)n2n1` gave Rango release inh 29.1%, Rango-impB inh -0.9% and miR-21 FLuc -2.0%.
Screening CCCN(CCC)C(=O)CSc1nc2n[nH]c(C)c2c(=N)n1-c1ccc(OCC)cc1 returned Rango release inh 0.7%, Rango-impB inh -0.6%, GLA inh pH 4.5 -1.7 and miR-21 FLuc 20.8%.
For CCOc1ccccc1C(=O)NCC(=O)Nc1ccc(-c2ccccc2)cc1 the results were Rango release inh 1.1%, Rango-impB inh -2.2% and miR-21 FLuc -11.8%.
CC(=O)c1cccc(NC(=O)c2ccc(NC(=O)CC3SC(N4CCCCC4)=NC3=O)cc2)c1 (configuration not stated) was read as Rango release inh -4.8%, Rango-impB inh -4.4% and miR-21 FLuc 3.5%.
CCOC(=O)/C(=C/C=C1\Sc2ccccc2N1CC)C(C)=O was read as Rango release inh inconclusive, Rango-impB inh inconclusive, GLA inh pH 4.5 -26.4 and miR-21 FLuc -37.4%.
For O=C(CCN=C1NS(=O)(=O)c2ccccc21)OCc1nnc(-c2ccccc2)o1 the results were Rango release inh 3.1% and Rango-impB inh -0.3%.
For NC(=O)c1c(NC(=O)COC(=O)CSc2nnc(-c3ccc(Cl)cc3)o2)sc2c1CCC2 the results were Rango release inh -4.7%, Rango-impB inh -0.8%, GLA inh pH 4.5 2.4 and miR-21 FLuc 1.1%.
CCCCN(CCCC)S(=O)(=O)c1ccc(C(=O)Nc2nnc(COC)o2)cc1 was read as Rango release inh 0.4%, Rango-impB inh -0.7%, GLA inh pH 4.5 7.9 and miR-21 FLuc 28.1%.
O=C(C1CCC1)N1CCN(c2ccc(Cl)cc2)CC1 was read as Rango release inh 0.0%, Rango-impB inh 4.4% and miR-21 FLuc -19.6%.
Screening CSCCC(NC(=O)c1ccc(C(C)(C)C)cc1)C(=O)O (configuration not stated) returned Rango release inh -5.3%, Rango-impB inh -14.9%, GLA inh pH 4.5 3.2 and miR-21 FLuc -3.0%.
For COC(=O)CSc1nc(C)c(C)c(C)c1C(N)=O the results were Rango release inh 6.1%, Rango-impB inh 5.7%, GLA inh pH 4.5 6.5 and miR-21 FLuc 0.7%.
`Cc1ccc(CSCCNC(=O)c2ccc(Cl)c(S(=O)(=O)N3CCOCC3)c2)cc1` gave Rango release inh -5.2%, Rango-impB inh -1.3%, GLA inh pH 4.5 -23.6 and miR-21 FLuc 17.6%.
CN(C)c1ccc(C(=O)c2ccc(O)cc2O)cc1 was read as Rango release inh 13.3%, Rango-impB inh inconclusive, GLA inh pH 4.5 -9.9 and miR-21 FLuc -42.1%.
CCCCNc1cccc2c1S(=O)(=O)N(CCCC)CC(COCc1ccccc1)O2 (configuration not stated) was read as Rango release inh -14.3% and Rango-impB inh inconclusive.
